Screening data (PubChem)
Marburg entry inh = Marburg virus entry inhibition. Marburg virus pseudotyped entry inhibition, cell reporter; control for the full effect not named in the record; about a third of the inactives were read at about 46 µM. Potency, µM (highest dose often 37.8 µM), inactives show at the highest dose activity change, negative = inhibition, usual class: inhibitors. hit rate 1.8% among 300,000. AID 540276; active = well fitted inhibition curve with a large enough effect; inconclusive = small, poorly fitted or top-dose-only effect, or effect the other way; inactive = flat fitted curve, though single readings scatter; tested in HEK293 cells; about a fifth of its hits are not listed in these tables; further: on the % scale 0 is the no-effect control and ±100 the full control effect; luciferase read-out
RE007 growth inh = less growth of the S. pombe RE007 Vpr strain; S. pombe RE007 Vpr strain, BacTiter-Glo ATP luminescence, 24 h; control for the full effect not named in the record; Potency, µM (series often up to 92.2 µM), for inactives: top-dose activity change, negative = less growth; hit rate 0.21% among 360,000; active = well fitted falling curve with a large enough effect; inconclusive = small, poorly fitted or top-dose-only effect; inactive = no such curve, though single readings can be large or run the other way;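 further: on the % scale 0 is the no-effect control and ±100 the full control effect; nearly all actives have a fitted effect of over 50% in size; the assay follows cell death caused by Vpr and the record does not say whether a fall means rescue or toxicity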
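Fission yeast strain RE007, carrying one chromosomally integrated HIV-1 vpr copy, was seeded at OD 0.01 in PMG+AL medium with 23 nL pinned compound. After 24 h at 30 °C and 99% humidity, viability was read by BacTiter-Glo luminescence.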
Cruzain inh noDet = inhibitors of Trypanosoma cruzi cruzain without detergent; purified cruzain, Z-FR-AMC fluorescence, no detergent; Potency, µM, for inactives: max response, negative = inhibition, most hits filed as inhibitors; hit rate 2.3% among 200,000; active means well fitted curve in the direction sought with a large enough effect; inconclusive means small, poorly fitted or top-dose-only effect, or another doubt; inactive means no such curve, though single readings can be large; an effect the other way counts as inactive or inconclusive;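 further: plate controls were enzyme without inhibitor for no effect and buffer without enzyme for full effect; nearly all actives have a fitted effect of over 40% in size; top concentration of the series not given in the record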
Target sequence (P25779 123-467 limits assumed): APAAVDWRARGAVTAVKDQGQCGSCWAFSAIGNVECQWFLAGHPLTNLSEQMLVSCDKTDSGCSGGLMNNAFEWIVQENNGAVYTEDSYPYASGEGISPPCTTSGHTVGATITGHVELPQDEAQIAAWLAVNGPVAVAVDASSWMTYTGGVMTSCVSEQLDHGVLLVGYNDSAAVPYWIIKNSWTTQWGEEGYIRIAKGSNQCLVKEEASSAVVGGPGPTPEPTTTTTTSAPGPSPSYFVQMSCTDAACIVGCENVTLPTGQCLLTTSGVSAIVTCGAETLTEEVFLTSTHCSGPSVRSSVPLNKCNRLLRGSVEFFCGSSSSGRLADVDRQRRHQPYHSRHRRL
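Purified cruzain at 1.5 nM, pre-incubated 15 min with compound at room temperature in 100 mM sodium acetate pH 5.5, 5 mM DTT, 0.00005% Triton X-100. Reaction started with 2 uM Z-FR-AMC; AMC fluorescence increase over 60 s gives rate.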
2A StopGo = FMDV 2A StopGo reporter, luciferase signal; human cells with a luciferase reporter of 2A StopGo recoding; control for the full effect not named in the record; Potency, µM (top dose mostly 57.9 µM), inactives show at the top dose signal change, negative = less light; hit rate 1.2% among 410,000; active = well fitted falling curve with a large enough effect; inconclusive = small, poorly fitted or top-dose-only effect; inactive = no such curve, though single readings can be large or run the other way; tested in HEK293T cells; further: on the % scale 0 is the no-effect control and ±100 the full control effect; nearly all actives have a fitted effect of over 45% in size; luciferase light after 4 h
SARS PLP yeast = inhibitors of SARS-CoV papain-like protease in yeast. S. cerevisiae expressing SARS-CoV PLpro, growth rescue; control for the full effect not named in the record. Potency, µM (doses to about 32.9 µM), for the others: top-dose activity, positive = growth rescue. hit rate 0.19% among 330,000; further: 0% is about no effect; nearly all actives have a fitted effect of over 55% in size; growth read by luminescence after 48 h
NS1 inh = blocks influenza NS1 protein function; S. cerevisiae slowed by influenza A NS1, growth recovery by OD600; Potency, µM (titrated, usually from 46.1 µM), for inactives: at the top dose activity, positive = more growth; hit rate 0.4% among 270,000; AID 2326; further: actives are rising curves; nearly all actives have a fitted effect of over 50% in size
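In this qHTS, NS1 from influenza A is expressed in budding yeast, where it slows growth. Cells are switched from glucose to 2% galactose medium (pH 6.0, -URA), treated with compound, and growth recovery is read at OD600.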
Cruzain Triton = inhibitors of Trypanosoma cruzi cruzain with detergent; purified cruzain, Z-FR-AMC fluorescence, 0.01% Triton; Potency, µM, without a hit: max response, negative = inhibition, hits mostly inhibitors; P25779; hit rate 0.43% among 200,000; AID 1478; active means well fitted curve in the direction sought with a large enough effect; inconclusive means small, poorly fitted or top-dose-only effect, or another doubt; inactive means no such curve, though single readings can be large; an effect the other way counts as inactive or inconclusive;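 further: plate controls were neutral wells for no effect and buffer without enzyme for full effect; nearly all actives have a fitted effect of over 40% in size; top concentration of the series not given in the record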
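Detergent-containing arm of a paired screen for aggregation-based inhibition: 0.01% Triton X-100 present. Cruzain at 1.5 nM cleaved 2 uM Z-FR-AMC at pH 5.5 with 5 mM DTT; AMC fluorescence gain over 60 s measured activity.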
LASV entry inh = blocks Lassa virus binding to or entry into cells; Lassa virus pseudotype entry inhibition, cell reporter; control for the full effect not named in the record; Potency, µM (titrated, usually from 37.9 µM), without a hit: at the highest dose activity change, negative = inhibition, hits mostly inhibitors; hit rate 1.2% among 300,000; AID 540256; active means well fitted inhibition curve with a large enough effect; inconclusive means small, poorly fitted or top-dose-only effect, or effect the other way; inactive means flat fitted curve, though single readings scatter; tested in HEK293 cells; further: on the % scale 0 is the no-effect control and ±100 the full control effect; nearly all actives have a fitted effect of over 50% in size; luciferase read-out
Active calls of the source: *; ? = inconclusive; · = not tested or not shown; & = joins results of further samples; [ ] = another dose, or the depositor's remark. Unless noted, the call rests on the fitted dose curve; in most records, active means well fitted rising curve with a large enough effect; inconclusive means small, poorly fitted or top-dose-only effect; inactive means no such curve, though single readings can be large or run the other way. Potency means the concentration at half of the fitted maximal effect.

SMILES	Marburg entry inh	RE007 growth inh	Cruzain inh noDet	2A StopGo	SARS PLP yeast	NS1 inh	Cruzain Triton	LASV entry inh
C#CCOCCOCCOCCNc1nc(N2CCN(C(=O)[C@H](CCCCN)n3cc([C@@H](N)CO)nn3)CC2)nc(N2CCN(C(=O)[C@H](Cc3ccc(O)cc3)n3cc([C@@H](N)CC(C)C)nn3)CC2)n1	·	-2%	·	-11%	1%	-2%	·	·
Cc1ccc(CCNC(=O)c2c[nH]c3ccc(S(=O)(=O)Nc4ccc(C)cc4C)cc3c2=O)cc1	·	·	?	-18%	-4%	·	2.7%	?
CCOc1cccc(C(=O)NC(=S)Nc2ccc(N3CCN(CC)CC3)cc2)c1	?	-16%	·	4%	1%	5%	·	-29%
CC12Cc3cn[nH]c3C=C1CCC1C2CCC2(C)C1CCC2(C)O (stereo not given)	-12%[46.1 µM]	-3%	·	-14%	·	·	·	-10%[46.1 µM]
O=C(Nc1nnc(S(=O)(=O)N2CCN(c3ccc(F)cc3)CC2)s1)c1ccc(Cl)cc1	·	·	-6%	-7%	·	·	-1.3%	0%[46.1 µM]
COc1ccc(CCNC(=S)NC2CCN(Cc3ccccc3)CC2)cc1OC	?	12%	·	8%	0%	4%	·	10%[46.1 µM]
COc1ccccc1CN1CC(C(=O)NCc2cc(C(C)C)no2)CCC1=O (stereo not given)	-1%[46.1 µM]	12%	·	0%	-3%	-7%	·	1%[46.1 µM]
CN(C)CC(C)(C)CNC(=O)CC1C(=O)NCCN1Cc1ccc(-c2ccccc2)cc1 (stereo not given)	-4%[46.1 µM]	-9%	·	-21%	3%	7%	·	23%[46.1 µM]
CN(C)S(=O)(=O)c1cccc(NC(=O)C2CCN(S(=O)(=O)c3cccs3)CC2)c1	?	1%	·	-15%	11%	·	·	?
CC(C)(C)c1ccc(C(=O)Nc2ccc(CC(=O)O)cc2)o1	?	-3%	1%	0.79µM*	10%	-1%	1.8%	2.3µM*
O=C(Cn1c(-c2ccccn2)nc2ccccc21)NCCN1CCOCC1	0%	-1%	-3%	-14%	7%	1%	4.0%	8%
CN1C(C(=O)NC(C)(C)C)=CC(c2ccc3c(c2)OCO3)=NS1(=O)=O	13%[46.1 µM]	·	2%	-9%	·	·	-3.9%	-7%[46.1 µM]
Cc1c(NC(=O)CN2CCN(c3ccc(F)cc3)CC2)c(=O)n(-c2ccccc2)n1C	4%[46.1 µM]	-12%	·	-7%	5%	4%	·	-9%
Cc1ccc2c(c1)c1cccc3c1n2CCN3CCC(N)=O	0%	-3%	?	44%[activator]	-7%	3%	-9.8%	?
C=CCn1c(O)c(/C=C2\C=Nc3ccccc32)c(=O)[nH]c1=O	12%[46.1 µM]	-17%	·	-17%	1%	2%	·	-19%[46.1 µM]
Cc1noc(C)c1COc1cccc(C(=O)N2CCc3ccccc32)c1	?	20%	·	-17%	-6%	·	·	?
COCCc1nn2c(=O)cc(COC(=O)c3ccc(Br)cc3)nc2s1	·	·	-14%	-14%	·	·	-0.5%	0%[46.1 µM]
CCOC(=O)c1[nH]c(C)c(C(=O)OCCOc2cccc(C)c2)c1C	?	5%	-17%	-15%	23%	-5%	-2.7%	-24%
Cc1ccc(S(=O)(=O)NC(=O)Nc2ncc3c(n2)CC(c2ccco2)CC3=O)cc1 (stereo not given)	4%	-8%	-6%	-22%	4%	0%	-2.0%	2%
O=C1/C(=C/c2ccccc2O)SC(=S)N1Cc1cccnc1	-4%	-10%	-3%	32µM*	?	4%	-5.6%	11%
O=C(O)c1cccc(CN2C(=O)S/C(=C/c3ccccc3[N+](=O)[O-])C2=O)c1	0%[46.1 µM]	-9%	·	-23%	-1%	0%	·	21%
O=c1cc(O)c2sc(Nc3cccc(C(F)(F)F)c3)nc2[nH]1	2%	-5%	?	-11%	8%	?	-8.9%	?
Cc1cccc(NC(=O)Nc2cnccn2)c1C	·	-8%	·	0%	2%	17%	·	·
O=C(OCC(=O)N1CCCC1)c1cccc(Br)c1	25%[46.1 µM]	6%	·	43%[activator]	-3%	-10%	·	17%
CCC(NS(=O)(=O)c1ccc(OC)cc1)C(=O)O (stereo not given)	-2%	-6%	?	-3%	3%	-2%	1.5%	0%
CCOc1ccc(-c2c(C(=O)N/N=C(\C)c3ccncc3)nnn2-c2nonc2N)cc1	·	-13%	·	-17%	2%	-4%	·	·
NC1=NC(c2ccc(Cl)cc2)n2c(nc3ccccc32)N1 (stereo not given)	-16%	4%	-11%	-7%	1%	-3%	4.2%	19%
Cc1no[n+]([O-])c1COc1ccc(/C=N/n2nnnc2N)cc1	-29%	-3%	-11%	-15%	15%	-18%	-0.8%	9%
COc1ccc(-n2nnc3c(SCc4ccccc4)ncnc32)cc1	11%	-1%	4%	4%	-6%	7%	0.5%	4%
COc1ccc(CN2CCN(C3CCC3)CC2CCO)cc1C (stereo not given)	·	-2%	·	3%	8%	2%	·	·
O=C(NCc1ccco1)/C(=C\c1ccccc1)NC(=O)c1ccccc1	15%[46.1 µM]	81%	·	38%[activator]	-1%	-4%	·	22%
COC(=O)c1nnc(N[C@@H](Cc2c[nH]c3ccccc23)C(=O)OC)nc1C(=O)OC	?	·	-12%	·	·	·	3.6%	?
CCOc1ccc2nc(SCC(=O)N(C)C3CCS(=O)(=O)C3)[nH]c2c1 (stereo not given)	18%	-13%	1%	7%	0%	3%	-0.2%	7%
COc1ccc2oc(=O)c(-c3nc4ccccc4o3)cc2c1	?	-22%	-9%	52%[activator]	-17%	-7%	-7.3%	?
Cc1ccc(OCc2cc(C(=O)N3CCC(C(O)C(C)C)CC3)no2)cc1C (stereo not given)	·	-2%	·	1%	1%	-12%	·	·
Cc1ccc(NS(=O)(=O)c2cc([N+](=O)[O-])ccc2NNC(=S)Nc2cccc(Cl)c2)c(C)c1	?	22%	-22%	-8%	12%	?	20µM*	?
CC(=O)Nc1ccc(S(=O)(=O)NC2CC(=O)N(c3ccc(C)cc3)C2)cc1 (stereo not given)	0%[46.1 µM]	-11%	·	-13%	-1%	·	·	-21%
O=C(CCC(=O)N1CCOc2ccccc21)NC1CCN(Cc2ccccc2)CC1	·	-8%	·	-21%	8%	29%	·	·
CCCCNC(=O)C1Cc2cc(S(=O)(=O)N3CCCC3)ccc2N1C(C)=O (stereo not given)	·	15%	·	-9%	-5%	12%	·	·
CCOc1ccccc1NC(=O)c1cccn(Cc2ccccc2C)c1=O	·	·	0%	-8%	·	·	-0.4%	?

Given in CSV form: part of the list above
structure,Marburg entry inh,RE007 growth inh,Cruzain inh noDet,2A StopGo,SARS PLP yeast,NS1 inh,Cruzain Triton,LASV entry inh
COC(=O)c1nnc(N[C@@H](Cc2c[nH]c3ccccc23)C(=O)OC)nc1C(=O)OC,?,·,-12%,·,·,·,3.6%,?
CCOc1ccc2nc(SCC(=O)N(C)C3CCS(=O)(=O)C3)[nH]c2c1 (stereo not given),18%,-13%,1%,7%,0%,3%,-0.2%,7%
COc1ccc2oc(=O)c(-c3nc4ccccc4o3)cc2c1,?,-22%,-9%,52%[activator],-17%,-7%,-7.3%,?
Cc1ccc(OCc2cc(C(=O)N3CCC(C(O)C(C)C)CC3)no2)cc1C (stereo not given),·,-2%,·,1%,1%,-12%,·,·
Cc1ccc(NS(=O)(=O)c2cc([N+](=O)[O-])ccc2NNC(=S)Nc2cccc(Cl)c2)c(C)c1,?,22%,-22%,-8%,12%,?,20µM*,?
CC(=O)Nc1ccc(S(=O)(=O)NC2CC(=O)N(c3ccc(C)cc3)C2)cc1 (stereo not given),0%[46.1 µM],-11%,·,-13%,-1%,·,·,-21%
O=C(CCC(=O)N1CCOc2ccccc21)NC1CCN(Cc2ccccc2)CC1,·,-8%,·,-21%,8%,29%,·,·
CCCCNC(=O)C1Cc2cc(S(=O)(=O)N3CCCC3)ccc2N1C(C)=O (stereo not given),·,15%,·,-9%,-5%,12%,·,·
CCOc1ccccc1NC(=O)c1cccn(Cc2ccccc2C)c1=O,·,·,0%,-8%,·,·,-0.4%,?

The results go on:
SMILES	Marburg entry inh	RE007 growth inh	Cruzain inh noDet	2A StopGo	SARS PLP yeast	NS1 inh	Cruzain Triton	LASV entry inh
COc1ccc(NC(=O)CN2C(=O)CN=C(c3ccccc3)c3ccccc32)c(OC)c1	·	·	-5%	-21%	·	·	-0.8%	6%[46.1 µM]
Cc1cccc(N2CCN(c3nnnn3-c3ccccc3)CC2C)c1 (stereo not given)	?	-8%	6%	?	?	-88%	-2.0%	-15%
COc1ccc(NC(=O)NNC(=O)c2cc3occc3n2C)c(OC)c1	·	0%	·	-9%	-3%	23%	·	·
CC(C)C(=O)Nc1sc2c(c1C(N)=O)CCN(Cc1ccccc1)C2	·	4%	·	?	-7%	0%	·	·
CC1CCN(C(=O)COc2ccc(S(=O)(=O)N3CCCC3)cc2)CC1	-1%[46.1 µM]	16%	·	3%	0%	7%	·	5%[46.1 µM]
CC(C)CC(C(=O)N1CCc2ccccc2C1)N1C(=O)c2ccccc2C1=O (stereo not given)	?	27%	11%	0%	-21%	15%	-0.6%	5%
O=C(COc1ccc(Cl)cc1)NCc1nnc(SCC(=O)N2CCCc3ccccc32)o1	-2%&2%	-1%	-2%	-20%	10%	-7%	-0.9%	-9%
CCc1cccc(C)c1NC(=O)C1CCCN1C(=O)NCc1ccccc1 (stereo not given)	-11%[46.1 µM]	4%	·	-10%	0%	10%	·	?
